# Assay outcomes: PubChem BioAssay, National Center for Advancing Translational Sciences (NCATS)
# VDR inh: inhibitors of human vitamin D receptor; VDR-SRC2-3 peptide fluorescence polarization, 2 h; Potency, µM, without a hit: max response, negative = inhibition, most hits filed as inhibitors; 0.93% of 400,000 active; AID 504847; active means well fitted inhibition curve with a large enough effect; inconclusive means small, poorly fitted or top-dose-only effect, or another doubt; inactive means no such curve, though single readings can be large or run the other way; further: series mostly up to about 120 µM
# Target sequence (P11473 whole entry, looked up): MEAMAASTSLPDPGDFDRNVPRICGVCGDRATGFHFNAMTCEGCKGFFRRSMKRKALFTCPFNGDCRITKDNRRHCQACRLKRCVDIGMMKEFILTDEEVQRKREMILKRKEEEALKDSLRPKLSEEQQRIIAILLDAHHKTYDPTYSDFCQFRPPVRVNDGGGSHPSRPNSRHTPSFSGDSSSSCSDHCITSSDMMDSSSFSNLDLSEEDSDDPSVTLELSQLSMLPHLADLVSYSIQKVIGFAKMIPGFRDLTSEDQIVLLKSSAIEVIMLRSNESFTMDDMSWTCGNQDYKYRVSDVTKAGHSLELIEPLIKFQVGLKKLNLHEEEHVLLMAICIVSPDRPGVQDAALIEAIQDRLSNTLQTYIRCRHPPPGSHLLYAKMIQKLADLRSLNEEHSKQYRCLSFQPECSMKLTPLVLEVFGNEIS
#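 VDR–SRC2-3 interaction, FP format. Cmpds 23 nl via pintool, brief spin, 2 h ambient incubation.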
# An asterisk follows results filed as active; ? = inconclusive; & = joins results of further samples; [ ] = remark or other dose. On the % scale 0 is the no-effect control and ±100 the full control effect; potency means the concentration at half of the fitted maximal effect. Not all compounds are listed (hit frequency here may not be typical).
SMILES,VDR inh
COc1ccc(CNc2c(C(=O)O)cnc3c2cnn3C)cc1,4.1%
COc1c(C)cc(Br)cc1C(=O)NC(=S)NCc1ccco1,-0.1%
Cc1nn(-c2ccccc2)c2ncc(C(=O)c3cc(Cl)ccc3O)cc12,-23.0%
Cc1cccc(CNc2ccnc(-c3cccc(NS(C)(=O)=O)c3)n2)c1,-3.4%
COc1ccc(N(Cc2ccccc2)S(=O)(=O)c2cccc(C(=O)Nc3ncccc3C)c2)cc1,-2.5%
CC1CCN(C(=O)CSc2nc3c(c(=O)n2C)SCC3)CC1,-7.1%
CNC[C@H]1Oc2ccc(NC(=O)Nc3ccc4c(c3)OCO4)cc2C(=O)N([C@H](C)CO)C[C@@H]1C,-4.5%
COC(=O)C1CCN(S(=O)(=O)c2ccc(NC(C)=O)cc2)CC1,-15.0%
CCOC(=O)c1sc(NC(=O)c2ccc(S(=O)(=O)N(CC)CC)cc2)nc1C,3.4%
CCOc1ccc(NC(=O)COC(=O)C2C3CC4OC(=O)C2C4C3)cc1 (configuration not stated),14.9%
Cc1c(NC(=O)COC(=O)c2ccc(Br)o2)c(=O)n(-c2ccccc2)n1C,2.7%
CN(c1ccccc1)S(=O)(=O)CS(=O)(=O)N(C)c1ccccc1,-9.6%
O=C(CCn1c(=O)c2cccn2c2cccnc21)NCc1ccc(F)cc1,8.7%
Cc1ccc(Nc2nnc(SCc3nc4ccccc4c(=O)[nH]3)s2)cc1,-20.8%
CCc1ccccc1S(=O)(=O)Cc1ccc(C(=O)NCCc2ccc(C)cc2)o1,-22.6%
Cc1sc(NC(=O)c2cc(-c3ccccc3)nc3ccccc23)c(C(N)=O)c1C,-15.4%
Cc1ccc(S(=O)(=O)N(CCC(=O)O)c2ccccc2)cc1,-10.3%
COc1ccccc1NC(=O)c1csc2c1CCC(C)C2 (configuration not stated),-16.8%
COC1=C(C)C(=O)C2=C(C1=O)C1C3CC4=C(C(=O)C(OC)=C(C)C4=O)C(CNC(=O)C(C)=O)N3C(C#N)C(C2)N1C (configuration not stated),-23.4%
CC(Oc1ccc(Cl)cc1Cl)C(=O)NCCCN(C)C (configuration not stated),3.5%
COc1ccc(/C=C(\C#N)C(=O)c2c(C)[nH]c3ccccc23)cc1OC,-17.4%
O=C(NNC1=C(C(=O)C(F)(F)F)CCC1)c1cccc(O)c1,-1.1%
CCOC(=O)c1c(C)n(C)c2cc(Br)c(C(=O)OC)cc12,-16.3%
O=c1[nH]c(CN2CCc3ccccc3C2)nc2ccccc12,3.3%
COc1ccc(OC)c(CNC(=O)Cn2nc(C)c3c(C)n(-c4ccc(C)cc4)nc3c2=O)c1,-23.3%
Cc1c(N=Cc2nc3ccccc3[nH]2)c(=O)n(-c2ccccc2)n1C,-5.1%
O=C(CCN1C(=O)C2C3C=CC(C3)C2C1=O)NC1CCCCC1 (configuration not stated),24.0%
COc1ccc(OCc2cc(C(=O)N3CCOCC3)no2)c(Cl)c1,20.2%
Cc1ncc(CN2CCC(C(=O)Nc3ccc(-n4cccn4)cc3)CC2)s1,-3.4%
CCc1ccc(C(=O)N2CCN(c3ccc(NC(=O)c4ccco4)cc3)CC2)cc1,-1.1%
CCCC(C(=O)NCCc1ccc(S(N)(=O)=O)cc1)c1ccccc1 (configuration not stated),7.2%
CCn1c2ccccc2c2cc(NC(=O)C(C)Oc3ccccc3)ccc21 (configuration not stated),9.9%
COc1ccc(S(=O)(=O)Nc2c(C)nc3nc[nH]n3c2=O)cc1,-9.9%&-1.7%
Cc1nc(CN2CCN(C(=O)CCc3nnc(Cc4c[nH]c5ccccc45)o3)CC2)cs1,-5.9%
CCOC(=O)CNc1c(N2CCN(c3ccccn3)CC2)c(=O)c1=O,-14.5%
CCOc1cc(NC(=S)NCCOC)c(OCC)cc1NC(=O)c1cccs1,5.0%
COc1ccc(Br)cc1S(=O)(=O)N1CCCc2ccccc21,-12.6%
COc1ccccc1-n1nc(C(=O)O)c2ccccc2c1=O,1.1%
CC(C)NC(=O)c1onc(CSc2ccc(C(C)C)cc2)c1C(=O)O,-29.3%
Cc1cccc(Cn2c(C)c(CNC3CCCCCC3)c(C(=O)O)c2C)c1,20.3%
N#Cc1cc2c(nc1SCC(O)CS(=O)(=O)Cc1ccc(Cl)cc1)CCCC2 (configuration not stated),0.7%
C=CCn1c(C)csc1=Nc1ccc(C(C)=O)cc1,-6.3%
Cc1ccc(S(=O)Cc2ccc(C(=O)NCc3ccc(OC(C)C)cc3)o2)cc1 (configuration not stated),9.2%
CCOC(=O)/C=C/[C@H]1Cc2ccccc2CO1,3.1%
CC(Oc1ccc(Br)cc1)C(=O)NCCCN1CCCC1=O (configuration not stated),-22.0%
Cc1nc2c(C#N)c[nH]n2c(=O)c1Cc1ccccc1,11.9%
CCCC[C@@H]1CNC(=O)C(=O)N1CCc1cc(C(F)(F)F)cc(C(F)(F)F)c1,-17.2%
Cc1sc2nc(SCC(=O)O)[nH]c(=O)c2c1C,-0.8%
C=CCOc1cccc(C(=O)Nc2ncn[nH]2)c1,-12.1%
O=C(O)Cc1ccc2oc(-c3cccnc3)nc2c1,12.0%
Cc1csc(NC(=O)C2CCCCC2)n1,7.9%
O=C(Nc1ccc(Cl)cc1F)C1CC1,10.0%
O=C(CNC(=O)c1ccco1)N/N=C/c1ccc(O)c([N+](=O)[O-])c1,-14.6%
CCCN1CCC(NC(=O)Nc2ccc([N+](=O)[O-])cc2)CC1,11.7%
CC(=O)/C=N/Nc1ccccc1,-14.0%
O=C(c1ccccc1)N1CCN(C(=O)c2ccncc2)CC1,-4.9%
O=C(CN1CCN(c2ncc(C(F)(F)F)cc2Cl)CC1)N1CCN(c2ncc(C(F)(F)F)cc2Cl)CC1,-23.5%
CN(C)c1ccnc(-n2cccc2/C=N/O)c1C#N,-5.8%
CC(=O)c1ccc(Oc2cc(C)nc(NCc3ccccc3)n2)cc1,-1.6%
CC(C)(C)OC(=O)CNC(=O)c1[nH]cnc1C(=O)N[C@@H](CCCCNC(=O)OC(C)(C)C)C(=O)OC(C)(C)C,-1.0%

# Further structures follow.
SMILES,VDR inh
COc1cc(NC(=O)C2CCCN(S(=O)(=O)c3ccc4[nH]c(=O)ccc4c3)C2)cc(OC)c1 (configuration not stated),14.1%
COc1cc(NC(=O)CCS(=O)(=O)c2ccc3c(c2)oc(=O)n3C)cc(OC)c1OC,4.8%
Cc1oc2c(c1C(=O)NC(Cc1c[nH]c3ccccc13)C(=O)O)CCCC2 (configuration not stated),-15.3%
c1ccc(COc2ccccc2CNCc2cccnc2)cc1,0.7%
CCOc1ccc(NC(=O)Cn2cc(C(=O)C3CC3)c3ccccc32)cc1,6.3%&-21.6%
CCN(CC)c1ccc(C(=S)NC2CCCCC2)cc1,?
N=c1c2ccccc2nnn1-c1ccc(C(F)(F)F)cc1,-6.5%
CC(=O)Nc1ccc(C(=O)Nc2ccc3c(c2)OCO3)cc1,-0.4%
COc1ccc(NC(C)=O)cc1NC(C)C(=O)Nc1cccc(S(=O)(=O)N2CCOCC2)c1 (configuration not stated),-1.5%
Nc1cc([N+](=O)[O-])cc2oc(-c3ccccc3)cc12,-12.3%
COc1cc2oc(=O)cc(-c3ccc(-c4ccc(N(C)C)cc4)cc3)c2c(OC)c1OC,-4.9%&-0.8%
O=c1oc2ccccc2c(NCc2ccc(Cl)cc2)c1[N+](=O)[O-],3.6%
CCc1cc(=O)[nH]c(SCc2cccc3ccccc23)n1,-3.5%
CC(=O)Nc1nc(C)c(-c2csc(Nc3ccccn3)n2)s1,73.9%&5.6%[activator]
Cc1ccc(C(=O)COC(=O)CCC(=O)Nc2ccc(Oc3ccccc3)cc2)cc1C,-7.0%
CN(Cc1ncc[nH]1)C(=O)c1cc(COc2c(F)cccc2F)on1,0.6%
O=c1c2cc(Cl)ccc2nc(-c2ccccc2Cl)n1O,24.1%
CC1(C(=O)N2CC3(CC(c4cccc(NC(=O)COc5ccc(Cl)cc5)c4)=NO3)C[C@@H]2C(N)=O)CC1 (some centres not stated),-5.3%
CC(C(=O)NC(C)(C)C)N(C(=O)CS(=O)CC(=O)Nc1ccc(F)cc1)c1ccccc1F (configuration not stated),2.5%
COc1cc2sc(NC(=O)c3ccco3)nc2cc1Cl,-20.0%
COc1cc(C)ccc1OCCCn1c(-c2ccc(Cl)cc2)nc2ccccc2c1=O,-20.2%
Clc1ccc(/C=N/N2CCCCC2)cc1,-14.4%
N/C(Cc1cccs1)=N\OC(=O)COc1ccc(Cl)cc1Cl,-7.9%
COc1ccc(-n2c(=O)c(-c3ccc(Cl)cc3)nc3cnc(N4CCOCC4)nc32)cc1,39.8µM*
COc1ccc2cc(C3=CCCCC3)ncc2c1,-14.2%
C=CCOC(=O)C(C#N)c1nc2ccccc2nc1N1CCN(Cc2ccc3c(c2)OCO3)CC1 (configuration not stated),20.8%
Cn1c(N)c(C(=O)COC(=O)[C@@H]2CCCN2S(=O)(=O)c2ccc(Cl)cc2)c(=O)n(C)c1=O,6.6%
Cc1ccc(C(c2c(C)[nH][nH]c2=O)c2c(C)[nH][nH]c2=O)cc1[N+](=O)[O-],-15.7%
CCCOC(=O)CN1C(=O)c2ccc(C(=O)OCCC)cc2C1=O,3.5%
CCc1ccc(-n2c(=O)c3c4c(sc3n(CC(=O)c3ccc(Br)cc3)c2=O)CCC4)cc1,6.1%
CCN1CCN(C(=O)c2ccc(CS(=O)(=O)Cc3ccccc3F)o2)CC1,-3.1%
CCCOc1ccc(C2c3c(-c4ccccc4O)n[nH]c3C(=O)N2CCCOCC)cc1OCC (configuration not stated),11.7%
COc1ccc(NC(=O)c2cc(S(=O)(=O)NCCC3=CCCCC3)ccc2F)cc1,8.0%
Cc1cccc(NC(=O)COC(=O)c2ccc(S(=O)(=O)N3CCCC3)cc2)c1,0.1%
COc1ccc(NC(=O)CSCc2cc(=O)n3ccsc3n2)cc1,-9.1%
O=C(Nc1ccccc1C(=O)NCCN1CCOCC1)c1ccco1,3.4%
O=C(NN1C(=O)C2C3C=CC(C3)C2C1=O)c1ccco1 (configuration not stated),-16.7%
Cc1nc(Cl)nc(N(C)c2ccccc2)c1[N+](=O)[O-],-16.4%
CCOc1ccc(N(CC)S(=O)(=O)c2c(C)[nH]c(=O)[nH]c2=O)cc1,12.1%
O=C(COC(=O)Cn1nc(-c2ccccc2)oc1=O)Nc1ccc(F)cc1,-21.9%
CCC(=O)N(CCC1(C(C)C)CCOC(C)(C)C1)Cc1ccco1 (configuration not stated),-13.4%
Cc1cccc(C(=O)N(Cc2ccco2)c2c(N)n(Cc3ccccc3)c(=O)[nH]c2=O)c1,-10.1%
CCOc1ccc(CNC(=O)CSc2cc(=O)n(CC)c3ccccc23)cc1,-4.7%
Cc1ccc2cc3c(NC(=O)c4ccco4)nn(C)c3nc2c1,-0.8%
COCCNC(=O)c1cccc(OC2CCN(C(C)COc3ccccc3)CC2)c1 (configuration not stated),-3.8%
Cc1ccc(Sc2ccc(/C=N/O)cc2[N+](=O)[O-])cc1,27.5%
Cc1ccc(C)c(NC(=O)Cn2cc(S(=O)(=O)N3CCCC3)c(S(=O)(=O)N3CCCC3)c2)c1,15.6%
COc1ccc(NC(=O)NNC(=O)COc2ccc3ccccc3c2)cc1,6.0%
Cc1ccc2c(c1)cc(C(=O)Nc1ccc(F)cc1F)n2C,8.7%
CS(=O)(=O)N(Cc1nnc(-c2cccs2)o1)c1ccc(Cl)cc1F,-21.5%
Cc1cccnc1NC(=O)Nc1cccc2ccccc12,-11.5%
COc1ccccc1CNS(=O)(=O)c1ccc(F)c(C(=O)Nc2cc(Cl)ccc2OC)c1,17.5%
O=c1[nH]cc(NCCNc2ncc(C(F)(F)F)cc2Cl)c(=O)[nH]1,13.6%
CC(C)c1cc(CNC(=O)CCc2nnc(CCCc3ccccc3)o2)on1,-21.5%
CCN(CC(=O)Nc1c(F)cccc1F)C(=O)c1cccc(S(=O)(=O)N2CCN(c3ccccc3)CC2)c1,-15.5%
Cc1cccc(C(=O)N[C@H](C(=O)Nc2ccc(S(=O)(=O)NC3=NCCCCC3)cc2)C(C)C)c1,1.0%
NS(=O)(=O)c1ccc(CCNS(=O)(=O)c2cccc(C(=O)O)c2)cc1,1.0%
Cc1cccc(NC(=S)NC2CC3CCCC(C2)N3CC(C)C)c1 (configuration not stated),-14.2%
CCCN(C(=O)C(NC(=O)c1ccccc1)C(C)C)c1c(N)n(Cc2ccccc2)c(=O)[nH]c1=O (configuration not stated),1.4%
COc1ccc(OC)c(S(=O)(=O)n2ccc(C)n2)c1,18.5%
Cc1ccc(S(=O)(=O)C2(S(=O)(=O)c3ccc(C)cc3)CC2)cc1,-13.1%
CCOC(=O)c1c2c3c(cccc3[nH]c1=O)C(=O)c1ccccc1-2,7.3%
COc1ccc(C(=O)Cn2cc([N+](=O)[O-])nc2C)cc1,-3.3%
